Compound activity deposited in PubChem BioAssay by several laboratories.
Bfl-1 A1 inh – inhibitors of the anti-apoptotic protein A1, read as caspase activation; MEF A1-2A-BIM cells, Caspase-Glo 3/7 luminescence, 3 h; percent of clofoctol response, vehicle zero; caspase activation, % (test concentration not listed); 330,000 tested, 0.066% active; AID 2462;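 active = over half of replicate activation scores above 10%, or exactly half above 10 with the replicate mean above 10; inconclusive = replicate mean below 10 yet half the replicates above 10; inactive = over half of replicates below 10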;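 note: wells of about 30 µL received 50 nL stock; many hits fall short of the cut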
T cruzi repl – T. cruzi replication inhibition | AID 1885 | inhibition, % (no concentration beside the values) | T. cruzi beta-gal in NIH3T3, luminescence, 90 h | 300,000 tested, 1.4% active;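 active = mean inhibition across valid replicates above about 55%, limit read from the data; inconclusive = mean below that limit but half or more replicates reach it; inactive = mean below it, under half of replicates reach it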;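 note: signal also drops with host cell toxicity which is not excluded here; 0% = plate median of DMSO wells and 100% = zero luminescence signal; higher percent means less beta-gal luminescence so fewer parasites; stock transfer was 50 nL into about 50 µL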
Vif TR-FRET – inhibitors of Vif binding to APOBEC3G peptide, primary screen, biochemical, TR-FRET, GST-Vif 1-94, biotin-A3G peptide, dose response retest (AID 1117319); one-dose inhibition, %; IC50 in µM for titrated hits; TR-FRET GST-Vif / biotin-A3G peptide binding; higher % means a stronger effect; test concentration not given here; strong numbers were not always called active; 260,000 tested, 0.57% active;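 active = above the screen mean plus three standard deviations and confirmed in dose response; inconclusive = results disagree or hit not tested in dose response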;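 note: Vif residues 1-94 fused to GST binding biotinylated APOBEC3G peptide 110-148; 0% = full assay without inhibitor and 100% = GST in place of GST-Vif; retest series ran down from 100 µM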
AF4-AF9 inh – inhibitors of human MLL-AF4/AF9 interaction | inhibition, % at 10 µM | AID 651704 | 350,000 tested, 0.47% active | AlphaScreen, biotin-AF4 peptide binding to FLAG-AF9;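 active = every replicate reaching a set inhibition limit, whatever the replicate mean, cut at about 25% in these data; inconclusive = mean inhibition reaches that limit but some replicates miss it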;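 note: 0% = plate neutral control median and 100% = total signal loss; the record names both 10 and 1 µM as test concentration; the first replicate is given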
LANA-H2B inh – blocks KSHV LANA binding to histone H2A/H2B. inhibition, % (no concentration beside the values). cell-free LANA-H2A/H2B peptide, fluorescence polarization. 320,000 tested, 0.6% active. AID 2629; in the data active = inhibition mostly above about 10%, no sharp cut-off; inactive = mostly below about 6.7%;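 note: stock transfer was 7.5 nL into about 10 µL; 0% = median of vehicle wells and 100% = median of positive control wells; one replicate is shown; the record names a cut of 25% in any replicate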
Target sequence (Q9QR71 whole entry, looked up): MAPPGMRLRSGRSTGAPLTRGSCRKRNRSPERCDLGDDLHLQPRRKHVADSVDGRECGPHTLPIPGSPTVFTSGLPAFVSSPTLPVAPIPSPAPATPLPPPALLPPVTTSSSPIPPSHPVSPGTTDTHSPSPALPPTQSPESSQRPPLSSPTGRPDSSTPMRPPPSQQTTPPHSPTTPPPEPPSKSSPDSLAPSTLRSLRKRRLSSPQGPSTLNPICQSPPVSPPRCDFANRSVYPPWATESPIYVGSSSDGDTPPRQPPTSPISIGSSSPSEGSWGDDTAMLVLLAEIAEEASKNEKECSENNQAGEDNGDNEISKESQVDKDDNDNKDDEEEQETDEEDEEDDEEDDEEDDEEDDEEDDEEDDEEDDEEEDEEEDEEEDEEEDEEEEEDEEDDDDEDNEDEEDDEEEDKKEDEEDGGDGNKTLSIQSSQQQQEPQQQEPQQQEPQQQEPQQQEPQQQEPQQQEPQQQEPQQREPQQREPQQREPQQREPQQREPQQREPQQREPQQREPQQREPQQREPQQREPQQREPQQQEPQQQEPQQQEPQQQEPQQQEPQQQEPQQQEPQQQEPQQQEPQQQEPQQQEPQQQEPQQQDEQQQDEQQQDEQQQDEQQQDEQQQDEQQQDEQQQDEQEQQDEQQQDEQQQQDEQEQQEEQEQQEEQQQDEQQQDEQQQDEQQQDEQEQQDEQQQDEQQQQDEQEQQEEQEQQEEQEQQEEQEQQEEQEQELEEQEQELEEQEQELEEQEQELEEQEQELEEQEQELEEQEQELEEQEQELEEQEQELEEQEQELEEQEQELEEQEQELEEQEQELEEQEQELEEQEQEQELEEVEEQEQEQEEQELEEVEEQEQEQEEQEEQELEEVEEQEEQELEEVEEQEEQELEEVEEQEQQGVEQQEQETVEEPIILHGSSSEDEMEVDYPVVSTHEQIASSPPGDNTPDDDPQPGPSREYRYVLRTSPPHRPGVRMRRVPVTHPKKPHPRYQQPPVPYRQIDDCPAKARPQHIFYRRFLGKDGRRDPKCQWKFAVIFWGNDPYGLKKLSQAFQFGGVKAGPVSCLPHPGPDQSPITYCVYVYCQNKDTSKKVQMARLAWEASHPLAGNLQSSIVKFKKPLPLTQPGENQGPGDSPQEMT
Beta cell apopt – beta cell apoptosis inhibition. INS-1E cytokine-induced death, ATP luminescence, 48 h; percent of positive-control rescue, neutral wells zero. protection from apoptosis, % (no concentration beside the values). 300,000 tested, 0.8% active;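 active = all replicates at 75% or more, or half of them and the mean; inconclusive = half reach 75% but not the mean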;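 note: 0% = cytokine-treated negative control wells and 100% = positive control rescue; higher means more ATP so stronger rescue from cytokine killing; wells of about 40 µL received 100 nL stock; the first replicate is given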
RanGTP-Imp inh – disruptors of Ran-importin-beta complex formation – biochemical, FRET, CFP-Ran, YFP-importin-beta, homogeneous, primary screen. 300,000 tested, 1.1% active. inhibition, % (no concentration beside the values). cell-free CFP-Ran/YFP-importin-beta FRET ratio;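 active = most replicates above 15%; inconclusive = exactly half above 15%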;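 note: 0% = DMSO wells and 100% = Ran loaded with GDP instead of GTP; wells of about 40 µL received 100 nL stock; the first replicate is given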
Calb FLC – affects C. albicans growth with fluconazole; AID 1979; C. albicans CaCi-2 (fluconazole-resistant clinical isolate) + fluconazole, Alamar Blue growth, 48 h; 300,000 tested, 0.57% active; growth inhibition, % (concentration not given with the values);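 active = most replicates above 75%; inconclusive = exactly half above 75%; inactive = most below 75%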;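 note: all wells also contain fluconazole at 8 µg/ml as a sub-toxic cotreatment; 0% = median of DMSO wells and 100% = median of geldanamycin control wells; wells of about 8 µL received 7.5 nL stock; the first replicate is given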
An asterisk follows results filed as active; u = inconclusive; x = no result given.

SMILES	Bfl-1 A1 inh	T cruzi repl	Vif TR-FRET	AF4-AF9 inh	LANA-H2B inh	Beta cell apopt	RanGTP-Imp inh	Calb FLC
CCOC(=O)C1CCN(C(=O)CCN2C(=O)C3C4C=CC(C4)C3C2=O)CC1 (stereo not drawn)	0.7	-6	4%	x	4.5	1	1.1	1
O=C1CC(c2ccc(O)cc2)Oc2ccccc21 (stereo not drawn)	-10	x	x	2.0	5.6	-4	x	x
O=C(COn1nnc2ccc(C(F)(F)F)cc21)Nc1c(Cl)cccc1Cl	0.5	-7	14%	0.2	2.5	-2	-0.5	8
COc1ccc(Nc2nc(-c3ccccc3)nc3ccccc23)c(OC)c1	0.3	65*	x	-15	-0.2	10	-1.3	u
Clc1ccc(C[n+]2cc(-c3ccccc3)n3c2CCCCC3)c(Cl)c1	0.0	55*	30%	-0.8	-5.6	48	-2.3	u
C/C=C/C(=O)OCC(=O)Nc1ccc(F)cc1Cl	0.9	-1	-3%	x	0.5	1	3.0	13
CCN(CC(=O)Nc1c(F)cccc1F)C(=O)COc1ccc2c(c1)CCC2	-0.3	-1	0%	-3.5	-8.1	-5	x	-1
O=C(NC1CCCC1)C(c1ccsc1)N(CCc1ccccc1)C(=O)Cc1cccs1 (stereo not drawn)	-0.6	26	x	-2.7	-0.1	0	1.1	-6
CSc1nc(=S)n(Cc2ccccc2)c(C)c1C(C)=O	-0.7	0	-2%	x	-0.6	3	-6.7	31
CCS(=O)(=O)N1CCC(C(=O)NCc2ccccn2)CC1	0.6	-5	>100µM*	x	-2.3	6	4.8	-4
CC(=O)c1ccc(Sc2ccccn2)c([N+](=O)[O-])c1	0.5	0	18%	-1.6	-2.3	x	-1.6	-2
CC(C)(C)C1CCC(=NNC(=O)C(=O)NCc2cccnc2)CC1 (stereo not drawn)	0.2	-7	-7%	-0.9	-3.7	-9	-2.4	1
Cc1ccc(OC(=O)c2cccc([N+](=O)[O-])c2)c(-n2nc3ccccc3n2)c1	-6.1	0	10%	x	-1.6	-9	2.6	0
Cc1nnc(N2C(=O)C(=O)/C(=C(/O)c3ccc4c(c3)OCCO4)C2c2ccc(F)cc2)s1 (stereo not drawn)	0.6	-22	x	-1.0	6.9	-7	-3.8	0
O=C1OCC/C1=C\c1ccccc1	-0.1	-5	-9%	x	0.5	3	u	-1
O=C(N/N=C/c1ccc(Br)o1)/C(=C/c1ccc([N+](=O)[O-])cc1)NC(=O)c1ccccc1	-0.1	39	12%	-13	0.7	10	2.8	u
Cc1oc(-c2ccccc2)[n+]([O-])c1C	1.5	-12	5%	x	-2.8	0	-4.2	-9
CCC(=O)N1CCN(c2ccccc2NC(=O)Cc2ccc(Cl)cc2)CC1	0.0	0	5%	x	0.6	3	6.8	-7
O=C(COC(=O)CCC(=O)c1cccs1)Nc1ccc(Cl)cn1	-0.5	-11	17%	0.2	-0.9	-7	2.0	0
Fc1ccc(Nc2ccnc(Nc3ccc(F)cc3)n2)cc1	-1.0	38	x	0.2	0.2	-11	3.2	33
CN(C)C(CNC(=O)c1cccc(S(=O)(=O)N(C)C)c1)c1ccccc1 (stereo not drawn)	0.2	-13	32%	x	-0.8	-7	3.8	0
COc1cc(C=O)ccc1OCCCOc1ccc([N+](=O)[O-])cc1	1.4	-68	2%	2.8	-2.7	13	1.7	9
Cc1cc(=O)n2nc(N3CCC(C(=O)NCCc4ccc(Cl)cc4)CC3)sc2n1	1.6	-13	x	-0.9	3.0	-1	1.6	-7
CC(C)Cc1n[nH]c(=O)c2c1nnn2Cc1ccccc1F	0.5	-12	x	-2.7	-5.6	-11	2.7	-1
O=C(CSc1nncc2ccccc12)Nc1cccc(C(=O)O)c1	-0.9	3	-8%	6.5	2.2	-4	-0.2	-10
NCCCC[C@H]1CNC(=S)N1CC1CCCCC1	0.6	-3	x	19	5.9	-2	2.5	-11
O=C(Nc1ccc(Cl)c(Cl)c1)c1ccccc1	-4.1	x	x	-0.5	-2.5	3	x	x
O=C(CN1CCCCCC1)Nc1cccc(Br)c1	-0.1	6	-15%	x	0.0	-9	-0.5	-3
O=C(CCNS(=O)(=O)c1c(Cl)cccc1Cl)OCC(=O)c1ccccc1F	2.0	-17	0%	x	-0.8	-1	0.5	0
COC(=O)NC1(C(F)(F)F)C(=O)Nc2c1c(=O)n(C)c(=O)n2C (stereo not drawn)	1.1	-4	-8%	-1.1	-1.2	-5	0.1	2
NS(=O)(=O)c1ccc(NC(=O)COC(=O)c2ccc(Cl)cc2[N+](=O)[O-])cc1	-0.4	-11	x	2.6	-17	-4	-8.6	9
COC(=O)C(CCSC)NC(=O)c1cc2c(n(-c3ccc(C)cc3)c1=O)CCCC2=O (stereo not drawn)	0.5	-2	3%	1.1	-1.1	-3	u	28
CN(CC(=O)Nc1ccc(N2CCOCC2)cc1)C(=O)CCNC(=O)c1ccccc1Cl	0.7	6	1%	-12	-3.0	-4	1.3	-7
CN1CCN(C(=O)c2ccc(N(C)S(=O)(=O)c3cccs3)cc2)CC1	-0.6	28	>100µM*	-0.9	-4.1	-5	1.1	-4
CC1CCCN(CCCNC(=O)c2nn(C)c3c2CSc2ccccc2-3)C1 (stereo not drawn)	0.1	37	x	-6.7	-0.6	-1	3.4	26
CCOc1ccc(C(=O)N2CCCN(C(=O)c3ccc(OCC)cc3)CC2)cc1	0.1	-3	67%	2.1	4.1	-2	4.2	38
CCn1cc(SCC(=O)NCc2ccc3c(c2)OCO3)c2ccccc21	-1.0	5	-1%	9.3	5.9	-8	-1.1	-9
CCOc1ccc(C2NC(=O)c3sc(=S)n(-c4ccccc4)c3N2)cc1 (stereo not drawn)	0.0	-10	32%	-4.2	2.6	0	2.8	-6
COc1ccccc1NC(=O)Cc1nnc(SCC(=O)NC2=NCCS2)n1C	0.2	0	x	1.5	-4.5	-14	3.7	1
Cc1cc(NS(=O)(=O)c2ccc(NC(=O)c3cc4ccccc4o3)cc2)nc(C)n1	1.2	-14	9%	x	4.2	-1	1.9	-22
O=C(COC(=O)COc1ccccc1)Nc1cccnc1Cl	1.8	x	x	-3.3	3.3	-7	x	x
Cc1ccc(NC(=O)c2cccc3c2-c2ccccc2C3=O)cc1C	2.0	-6	-10%	x	0.6	6	u	4
CC(C)C(=O)Nc1nnc(Cc2ccccc2)s1	1.0	-8	-2%	1.8	-5.0	-2	-2.1	-20
Cc1c(C(=O)Nc2nnc(C3CC3)s2)oc2c(Cl)cccc12	0.0	-10	2%	5.4	-5.7	x	8.4	54
CC(=O)/C(C#N)=C1\NC(=O)C(Cc2ccccc2C)S1 (stereo not drawn)	0.5	17	x	-0.7	-1.3	-3	-1.5	7
CCOC(=O)C1CCN(CC(=O)c2c(C)[nH]c3cc(C)ccc23)CC1	0.2	2	-1%	x	-10	x	-4.8	-3
CCOc1ccc(-n2c(=O)c3ccccc3c3ccccc3c2=O)cc1	0.8	-13	-3%	-0.6	1.6	-3	2.6	u
CCn1c(CN2CCOCC2)nnc1SCC(=O)Nc1ccccc1C	0.5	-14	6%	-13	127*	-5	0.7	-2
CCCCC(=O)N(CCOC)c1nnc(-c2cccnc2)s1	-0.6	2	7%	-13	2.9	-3	1.7	12
C=CCOc1c2ccc(C(=O)NCc3ccccc3OC)cc2nn1C	0.0	-8	2%	-0.3	-0.5	-3	-0.9	10
COC(=O)CN1C(=O)N/C(=C/c2cc3c(cc2OC)OCO3)C1=O	0.0	-9	x	-1.0	3.9	-1	-4.7	-9
CCOc1ccc(NC(=O)c2ccncc2)cc1	-2.0	-1	3%	x	-0.1	x	4.2	15
O=C(NC(=S)Nn1cnc2c(cnn2-c2ccccc2)c1=O)c1ccc(Oc2ccccc2)cc1	-0.2	-7	-1%	x	0.3	-5	0.4	-10
Cc1c(CC(=O)NCCCC(=O)O)c(=O)oc2cc3oc4c(c3cc12)CCCC4	-0.7	-10	0%	0.1	3.0	-6	-1.9	-2
O=C(COc1ccc2ccccc2c1)NNC(=O)Nc1ccc(F)cc1F	0.8	-1	x	-1.5	2.4	-1	-7.0	3
COc1ccc(-n2nc([N+](=O)[O-])c(=NCc3cccnc3)n2O)cc1	-3.6	29	-11%	-8.6	0.7	8	-1.4	25
COc1ccc(CNC(=O)COC(=O)/C=C/c2cccc(Br)c2)cc1	-0.3	-6	5%	0.7	-175	-8	-0.7	-13
COc1cc(/C=C/C(=O)c2ccc3c(c2)OCO3)cc(Cl)c1O	0.4	-20	x	4.2	4.5	-2	-35	4
O=C(NCc1cccnc1)c1cccc(-c2cc3ccccc3oc2=O)c1	-0.6	-2	x	1.0	1.5	3	0.5	-12
COc1ccc(Cc2nnc(SCC(=O)N(C)CC(=O)Nc3ccc(C)cc3)o2)cc1	0.4	-3	-12%	-0.5	-7.7	0	-3.3	-5

(listing goes on)
SMILES	Bfl-1 A1 inh	T cruzi repl	Vif TR-FRET	AF4-AF9 inh	LANA-H2B inh	Beta cell apopt	RanGTP-Imp inh	Calb FLC
CCOC(=O)C1=C(COC(=O)/C=C/c2ccc(SC)cc2)NC(=O)NC1C (stereo not drawn)	-0.5	-7	-1%	-18	3.8	0	0.2	6
CC(=O)N1CCc2c(sc(NC(=O)Cc3ccc(F)cc3)c2C#N)C1	0.0	0	x	-2.8	1.8	-2	1.9	28
COc1ccc(C)cc1NC(=O)Nc1cccc(C(=O)O)c1	0.4	-8	-1%	-1.4	-1.0	x	3.5	8
O=C(N/N=C/c1cccs1)c1ccccn1	-3.6	-13	-2%	x	4.3	5	-2.5	-9
COc1ccc(NC(=S)N(Cc2ccc(C(=O)O)cc2)Cc2ccc(OC)c(OC)c2)cc1	1.6	-13	4%	-2.2	4.0	-6	-0.8	-2
CC(=O)n1cc(Nc2ccccc2C(=O)O)c2ccccc21	-0.1	-19	4%	x	-4.3	-5	2.6	-5
Cn1c(=O)c([N+](=O)[O-])c(Cl)c2ccccc21	x	88*	19%	-7.4	x	x	-0.9	1
CC(C)(C)NC(=O)C(=O)NNC(=O)c1ccco1	-0.4	-15	x	0.2	1.5	1	2.9	-17
Cc1ccn2c(CNCCn3cccn3)c(C(=O)N3CCCCCC3)nc2c1	-0.2	2	-12%	1.2	-2.6	-6	1.4	-13
Cc1ccc(-c2nn(-c3ccc(F)cc3)cc2C(=O)N2CCN(C3CCS(=O)(=O)C3)CC2)cc1 (stereo not drawn)	0.2	x	4%	0.4	x	-8	x	x
Cc1csc(NC(=O)COCC(=O)O)c1-c1nc2ccccc2s1	-0.1	5	-16%	-4.9	4.7	-4	0.6	2
O=C(NC1CCCCC1)N(Cc1nc2ccccc2c(=O)[nH]1)C1CCCC1	0.3	0	4%	x	-1.0	0	-4.2	-11
COc1cc(OC)cc(C(=O)N[C@H](C(=O)Nc2nc3ccc(S(C)(=O)=O)cc3s2)C(C)C)c1	0.0	10	-5%	-1.0	0.5	7	-0.6	23
